Screening results (PubChem)
ClpP mod = qHTS Assay for Activators of ClpP; purified B. subtilis ClpP, FRET peptide cleavage, 20 min; Potency, µM (series often up to 57.5 µM), inactives show top-dose activity change, negative = active; 340,000 tested, 1.9% active; AID 651965, 2013; active = well fitted falling curve with a large enough effect; inconclusive = small, poorly fitted or top-dose-only effect; inactive = no such curve, though single readings can be large or run the other way; note: the source files actives as falling curves though it sought activators and does not explain the sign; nearly all actives have a fitted effect of over 65% in size; many hits overshoot -100%
Target sequence (P80244 whole entry, looked up): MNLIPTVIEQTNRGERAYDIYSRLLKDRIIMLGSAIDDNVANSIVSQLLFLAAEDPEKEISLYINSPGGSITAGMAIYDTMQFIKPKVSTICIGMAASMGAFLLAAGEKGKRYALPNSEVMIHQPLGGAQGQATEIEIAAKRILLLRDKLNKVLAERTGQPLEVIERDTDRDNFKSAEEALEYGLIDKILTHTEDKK
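FRET quenching reversal measured ClpP activation: 10 microg/mL B. subtilis ClpP at pH 8 with the FRET-FV decapeptide, read at 430 nm after 320 nm excitation. The 20-min minus 0-min signal was scaled between DMSO/no-enzyme wells and ADEP (5.8 microM final).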
PINK1 modulator = PINK1 expression modulation | PINK1 immunofluorescence, high-content cytometry, 24 h | Potency, µM (doses to about 76.6 µM), for the others: top-dose activation (PINK1 increase), most hits filed as activators | 410,000 tested, 0.2% active | AID 624263; active = well fitted activation curve with a large enough effect; inconclusive = small, poorly fitted or top-dose-only effect; inactive = flat fitted curve, though single readings scatter; cell line not stated here;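 note: % of control where 0% means no effect; nearly all actives have a fitted effect of over 65% in size; a mitochondrial uncoupler was the plate control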
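Compound titrations (5 concentrations, 24 h) on a stable cell line; DMSO and CCCP controls. Endpoint: fixed-cell PINK1 immunofluorescence with mitochondrial, cell and nuclear markers, scanned by microplate cytometer.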
* marks the source's active call; other numbers are inactive results; ? = inconclusive; & = joins results of further samples. Potency is the fitted concentration of half-maximal effect.

A first look:
SMILES	ClpP mod	PINK1 modulator
O=C(CN1CCCN(S(=O)(=O)c2ccc(Br)cc2)CC1)Nc1cccc(C(F)(F)F)c1	-2.6%	-0.5%
Cc1noc(/C=C/c2ccccc2F)c1S(=O)(=O)N1CCC(C(=O)N(C)Cc2ccco2)CC1	-30.0%	0.5%
O=C(NCCC1=CCCCC1)c1ccc2c(c1)N(Cc1cccc(Cl)c1)C(=O)c1ccccc1S2=O (stereo not given)	-0.8%	2.5%
O=c1nc2n(-c3ccccc3F)c3ccccc3cc-2c(=O)[nH]1	4.1%	7.4%
O=c1cc(O)c2c([nH]1)CCC2	-5.1%	1.6%
CC1=C(C(=O)OC2CCCC2)C(c2c(Cl)cccc2Cl)CC(=O)N1 (stereo not given)	1.5%	3.5%

Main list, previewed entries included:
SMILES	ClpP mod	PINK1 modulator
O=C(CN1CCCN(S(=O)(=O)c2ccc(Br)cc2)CC1)Nc1cccc(C(F)(F)F)c1	-2.6%	-0.5%
Cc1noc(/C=C/c2ccccc2F)c1S(=O)(=O)N1CCC(C(=O)N(C)Cc2ccco2)CC1	-30.0%	0.5%
O=C(NCCC1=CCCCC1)c1ccc2c(c1)N(Cc1cccc(Cl)c1)C(=O)c1ccccc1S2=O (stereo not given)	-0.8%	2.5%
O=c1nc2n(-c3ccccc3F)c3ccccc3cc-2c(=O)[nH]1	4.1%	7.4%
O=c1cc(O)c2c([nH]1)CCC2	-5.1%	1.6%
CC1=C(C(=O)OC2CCCC2)C(c2c(Cl)cccc2Cl)CC(=O)N1 (stereo not given)	1.5%	3.5%
CN(Cc1ccccc1)C(=O)Cn1ncc2c3ccccc3n(Cc3cccc(Cl)c3)c2c1=O	?	0.2%
CCc1ccccc1NC(=O)CCNS(=O)(=O)c1ccc2c(c1)CCN2C(=O)C1CC1	2.2%	-1.6%
COc1ccc(OC)c(CNC(=O)C2CCN(c3ncnc4c3nc3n4CCCCC3)CC2)c1	-1.9%	7.3%
O=C(Nc1cccc(Cl)c1Cl)c1cc(S(=O)(=O)NCc2ccc3c(c2)OCO3)ccc1F	56.2%	4.9%
COc1cccc(CNC(=O)[C@@H]2CCCN2C(=O)[C@H]2CCCCN2C(=O)c2cccc(Cl)c2)c1	-1.5%	-0.9%
COc1ccc(N(C(=O)COc2ccccc2OC)S(=O)(=O)c2ccc(Cl)cc2)cc1	-1.8%	4.0%
Cc1ccc(Cn2cc(CCC(=O)NC3CCCCC3)c3ccccc32)cc1	-6.9%	1.0%
COc1ccc(-n2c(SCC(=O)c3ccccc3)nc3c([nH]c4ccccc43)c2=O)cc1	-1.0%	-5.2%
COc1ccc(CN(CCC(c2ccc3c(c2)OCO3)c2ccccc2OC)C(C)=O)cc1 (stereo not given)	-4.4%	-0.9%
COc1ccc(OC)c(Nc2nc3ccccc3n3c(C)nnc23)c1	-9.3%	4.8%
COc1ccc(N2CC3=C(C2=O)C(c2ccc(Br)cc2)NC(=O)N3C)cc1 (stereo not given)	-1.7%	-3.0%
CCOC(=O)c1ccc(N2C(=O)c3n[nH]c(C)c3C2c2ccc(C(C)(C)C)cc2)cc1 (stereo not given)	-0.3%	0.9%
CC(C)(C)c1ccc(C(=O)N(Cc2ccc(F)cc2)Cc2ccco2)cc1	1.9%	3.4%
Cc1ccc(Cl)cc1NC(=O)NCc1cccn1Cc1ccc(F)cc1	-1.8%	3.2%
CCCCC12CN3CC(C)(CN(C1)C3c1c(C)[nH]c(=O)[nH]c1=O)C2=O (stereo not given)	1.8%	-1.0%
CCOC(=O)c1ccc(NC(=O)c2ccc(-c3cccc(Cl)c3C)o2)cc1	4.1%	7.5%
Cc1cc(C)nc(NS(=O)(=O)c2ccc(NC(=O)COc3ccc(Cl)cc3C)cc2)n1	-1.4%	2.2%
Cc1ccn2c(=O)c(NC(=O)c3cccc([N+](=O)[O-])c3C)c(C)nc2c1	-10.2%	5.9%
COc1ccc(N2CCN(S(=O)(=O)c3c(C)[nH]c(=O)[nH]c3=O)CC2)cc1	-1.5%	1.7%
Cc1ccc(C(c2sc3nc(-c4ccco4)nn3c2O)N2CCC3(CC2)OCCO3)cc1 (stereo not given)	1.3%	1.4%
Cc1ccc(NC(=O)CSc2nc(-c3ccco3)nc3cc(=O)[nH]n23)cc1	-1.9%	2.2%
COc1ccc(-c2nc(S(=O)(=O)c3ccccc3)c(N3CCC(C)CC3)o2)cc1	-10.4%	2.2%
Clc1ccccc1CNc1nc2ccccc2c2nc(-c3ccccc3)nn12	-3.9%	0.3%
CCC(c1nnnn1-c1ccc2c(c1)OCCO2)N1CCN(c2ccccc2)CC1 (stereo not given)	1.0%	0.0%
COc1ccc(C(=O)Nc2ccc3oc(-c4ccc(F)cc4Cl)nc3c2)cc1	-11.2%	-0.7%
Cc1ccccc1Cn1c(=O)n(CCCCC(=O)NCCc2ccccc2)c(=O)c2ccccc21	0.3%	1.0%
COc1ccccc1CNC(=O)c1cnc2sc(N3CCOCC3)nn2c1=O	?	0.1%
O=C(NCC(c1ccco1)S(=O)(=O)c1cccs1)c1ccccc1F (stereo not given)	-0.6%	0.9%
Cc1ccc(CNC(=O)Cn2c(=O)n(Cc3ccc(F)cc3)c(=O)c3sc4ccccc4c32)cc1	-2.7%	3.8%
CCc1ccc(C2=NN(CCC(=O)NCCc3ccc(Cl)cc3)C(=O)CC2)cc1	?	0.7%
CC(CNC(=O)c1csc2c1CCCCC2)c1ccccc1 (stereo not given)	-1.6%	1.0%
Cc1cccc(C(=O)Nc2ccc(S(=O)(=O)N3CCCCC3c3cccnc3)cc2)c1 (stereo not given)	-13.9%	-2.6%
c1ccc(N2CCN(c3ncnc4c3nc3n4CCCCC3)CC2)cc1	-0.9%	3.6%
Cc1ccc(OCC(=O)Nc2ccccc2C(=O)OCc2cc(=O)n3c(C)csc3n2)cc1	2.2%	1.3%
COc1ccc(NC(=O)Cn2c(SCc3cc(C)ccc3C)nc3ccncc32)c(OC)c1OC	-7.1%	-0.1%
O=C(CSc1nnc(NC(=O)NC2CCCCC2)s1)Nc1ccccc1F	-1.2%	0.8%
Cc1ccc2c(c1)N(C(=O)Nc1ccc(Br)cc1F)CCO2	-0.3%	0.1%
Cn1c(SCc2ccc(Br)cc2)nc2c([nH]c3ccccc32)c1=O	-3.2%	1.6%
O=C(Nc1ccc(F)cc1F)C1CCN(c2ncccn2)CC1	-26.0%	1.0%
CCC(C)NC(=O)C(=O)Nc1c2c(nn1-c1ccccc1)CS(=O)(=O)C2 (stereo not given)	-5.4%	-1.1%
Cc1cccc(C)c1OCCCn1c(CCNC(=O)C2CCCCC2)nc2ccccc21	-3.3%&1.3%	1.8%&1.0%
Cc1ccc(C)c(N2C(=O)N(Cc3cccc(C(F)(F)F)c3)c3ccccc3S2(=O)=O)c1	1.4%	1.2%

A draw from above in order of heavy-atom count, low to high.
SMILES	ClpP mod	PINK1 modulator
Cn1c(SCc2ccc(Br)cc2)nc2c([nH]c3ccccc32)c1=O	-3.2%	1.6%
CCC(C)NC(=O)C(=O)Nc1c2c(nn1-c1ccccc1)CS(=O)(=O)C2 (stereo not given)	-5.4%	-1.1%
O=C(CSc1nnc(NC(=O)NC2CCCCC2)s1)Nc1ccccc1F	-1.2%	0.8%
Cc1cccc(C(=O)Nc2ccc(S(=O)(=O)N3CCCCC3c3cccnc3)cc2)c1 (stereo not given)	-13.9%	-2.6%
Cc1ccc(C)c(N2C(=O)N(Cc3cccc(C(F)(F)F)c3)c3ccccc3S2(=O)=O)c1	1.4%	1.2%

(more compounds)
SMILES	ClpP mod	PINK1 modulator
Cc1cccc(-c2nc(SCc3cc(=O)c4cccc(F)c4[nH]3)n[nH]2)c1	0.5%	6.0%
COc1cccc(CSc2nc3n(n2)C(c2cccs2)C(C(=O)Nc2ccccc2C)=C(C)N3)c1 (stereo not given)	1.0%	4.4%
COc1ccc(-c2cc(C(F)(F)F)nc(SCC(=O)Nc3ccc(O)cc3)n2)cc1OC	-17.8%	0.8%
COc1ccccc1Nc1nn2c(=O)c3ccc(C(=O)Nc4ccc(F)cc4)cc3nc2s1	-3.4%	-5.0%
Cc1ccc(C(=O)n2nc(C)c(S(=O)(=O)N3CCCCCC3)c2C)cc1C	0.9%	1.0%
COC(=O)c1ccc(NC(=O)Cn2c(=O)nc(-c3ccccc3)c3ccccc32)cc1	-11.2%	0.3%
Fc1ccc(-c2cc(-c3nc(-c4ccccc4)no3)[nH]n2)cc1	-5.0%	1.2%
Cc1ccc2c(c1)N(CC(=O)Nc1ccccc1C(F)(F)F)C(=O)c1cccnc1O2	-3.2%	2.3%
COCCCn1c(SCC(=O)Nc2ccc(OC)cc2)nc2c(sc3ccccc32)c1=O	-25.3%	-1.0%
CCC(C(=O)N1CCN(c2ccccc2)CC1)n1nc(C)c2sc3ccccc3c2c1=O (stereo not given)	-6.8%	-0.2%
CCCCn1cc2c(c1-c1ccccc1Br)c(=O)n(C)c(=O)n2C	-5.0%	-0.1%
Cn1c(=O)c2c(-c3ccccc3)n3c(c2n(C)c1=O)C(c1ccco1)Nc1ccccc1-3 (stereo not given)	-18.4%	1.1%
COc1ccc(NC(=O)c2cc3c(s2)-c2c(C)cccc2OC3)cc1Cl	25.1µM*	3.4%
Cn1cc(CCCC(=O)NCc2cccc(Br)c2)c2ccccc21	-13.7%	-0.3%
O=C(CCCCCn1c(=O)[nH]c2ccccc2c1=O)NCc1ccc(Cl)cc1	-15.1%	-0.3%
COc1cccc(N2CCN(C(=O)C(CCSC)NS(=O)(=O)c3ccc4c(c3)oc(=O)n4C)CC2)c1 (stereo not given)	3.0%	0.2%
Cc1c(CN(C)C(=O)c2cc(-c3ccccc3)nc3ccc(Br)cc23)cnn1C	-2.6%	-0.5%
CN(C)c1ccc(/C=C2\C=Cc3ccccc32)cc1N	0.5%	7.6%
O=S(=O)(NCc1ccc(F)cc1)c1ccc2[nH]c3c(c2c1)CCCCC3	-21.6%	1.0%
CCc1ccc(NC(=O)Cn2c(=O)n(-c3ccc(Cl)c(Cl)c3)c(=O)c3c(C)c(C)sc32)cc1	-0.6%	2.7%
Cc1ccc(C(=O)NCC(=O)OCc2cc(=O)n3nc(C4CC4)sc3n2)cc1	-5.4%	3.4%
COc1ccc(-c2nc3ccccc3n2Cc2ccc(C(C)C)cc2)cc1	3.9%	15.0%
COc1ccc(CCNC(=O)CCCn2c(=O)c3ccccc3n(CC(=O)Nc3cc(Cl)ccc3C)c2=O)cc1OC	-3.4%	3.0%
CCOC(=O)c1c(C)[nH]c(C)c1S(=O)(=O)NCC(=O)NCc1ccccc1C	-8.9%	3.0%
CNC(=O)C1CCC(Cn2c(=O)c3sccc3n(CC(=O)N3CCCCC3C)c2=O)CC1 (stereo not given)	-1.1%	2.5%
CCCS(=O)(=O)NCCc1sc2nc(-c3ccc(F)cc3)nn2c1C	1.9%	2.0%
COc1ccc(NC(=O)Cc2coc3cc(C)cc(C)c23)c(OC)c1	4.1%	1.3%
COc1ccc2c(c1)CC(C(=O)NCCN1CCN(c3cccc(Cl)c3)CC1)CO2 (stereo not given)	-1.3%	-0.7%
O=C(CNC(=O)c1ccc(F)cc1)OCc1cc(=O)n2ccsc2n1	-23.6%	1.2%
CC1=C(C(N)=O)C(c2cccc(O)c2)n2ncnc2N1 (stereo not given)	0.9%	-1.2%
COc1ccc(Cn2ccc3nc(C)c(C(=O)Nc4cc(C)cc(C)c4)cc3c2=O)cc1	9.7%	4.3%
COc1ccc(COC(=O)C2=C(C)NC(=O)CC2c2cccc(Cl)c2Cl)cc1 (stereo not given)	2.0%	14.8%
COc1ccccc1NC(=O)c1sc2nc(C)c(C(=O)Nc3ccc(C)cc3C)c(-c3cccs3)c2c1N	-10.1%	0.0%
O=C(C[n+]1ccc(C(=O)c2ccccc2)cc1)Nc1cccc([N+](=O)[O-])c1	1.4%	-0.4%
Cc1ccc(CC(=O)NCc2nc(-c3ccccc3)no2)cc1	0.6%	1.6%
Cc1cc(OCC(=O)N(Cc2ccc(N(C)C)cc2)Cc2ccco2)cc(C)c1Cl	-11.4%	3.8%
COc1ccc(N2CC(NC(=O)Cc3cccs3)CC2=O)cc1 (stereo not given)	0.3%	0.4%
COc1ccc(CNc2oc(/C=C/c3cc(OC)c(OC)c(OC)c3)nc2C#N)cc1	4.4%	3.5%
COc1cccc(C(=O)N(Cc2cccc(Cl)c2)Cc2ccco2)c1	-0.2%	2.3%
Cc1ccccc1OC(=O)CSc1nnc(-c2ccc3c(c2)OCO3)o1	137.4%	0.3%
COc1ccc(OC)c(CNS(=O)(=O)c2cc(-c3onc(C)c3C)ccc2C)c1	0.1%	1.1%
COc1cc(NC(=O)C(CC(C)C)NS(=O)(=O)c2ccc3c(c2)CCN3C(C)=O)cc(OC)c1 (stereo not given)	0.1%	1.8%
CC(=O)c1ccc(NC(=O)CCc2c(C)nc3c(c2C)c(=O)n(C)c(=O)n3C)cc1	-14.9%	1.0%
COc1cccc2cc(C(=O)Nc3ccc(F)c(F)c3)c(=O)oc12	2.0%	-1.0%
COc1ccc(-n2nc(C(=O)NCCc3ccc(OC)c(OC)c3)c3c4ccccc4n(C)c3c2=O)cc1	4.3%	0.9%
CCOc1ccc(CCNC(=O)c2cc3c(=O)n(C)c4ccccc4c3n2C)cc1	-5.0%	0.5%
CCC(Cc1ccccc1)NC(=O)CN1C(=O)COc2ccc(S(=O)(=O)N3CCCCCC3)cc21 (stereo not given)	-0.9%	0.5%
Cc1cc(Br)ccc1NC(=O)COC(=O)c1ccccc1OCC(N)=O	-1.9%	-0.7%

Not all compounds are listed; count on the stated rates, not on these rows.
